Source: PubChem
MLL AF4-AF9 inh: MLL-AF4/AF9 protein interaction inhibition | P42568 | AlphaScreen, biotin-AF4 peptide binding to FLAG-AF9 | inhibition, % at 10 µM | hit rate 0.47% among 350,000 | AID 651704;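 active means every replicate reaching a set inhibition limit, whatever the replicate mean, cut at about 25% in these data; inconclusive means mean inhibition reaches that limit but some replicates miss it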;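 further: 0% = plate neutral control median and 100% = total signal loss; the record names both 10 and 1 µM as test concentration; the first replicate is given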
Target sequence (P42568 whole entry, looked up): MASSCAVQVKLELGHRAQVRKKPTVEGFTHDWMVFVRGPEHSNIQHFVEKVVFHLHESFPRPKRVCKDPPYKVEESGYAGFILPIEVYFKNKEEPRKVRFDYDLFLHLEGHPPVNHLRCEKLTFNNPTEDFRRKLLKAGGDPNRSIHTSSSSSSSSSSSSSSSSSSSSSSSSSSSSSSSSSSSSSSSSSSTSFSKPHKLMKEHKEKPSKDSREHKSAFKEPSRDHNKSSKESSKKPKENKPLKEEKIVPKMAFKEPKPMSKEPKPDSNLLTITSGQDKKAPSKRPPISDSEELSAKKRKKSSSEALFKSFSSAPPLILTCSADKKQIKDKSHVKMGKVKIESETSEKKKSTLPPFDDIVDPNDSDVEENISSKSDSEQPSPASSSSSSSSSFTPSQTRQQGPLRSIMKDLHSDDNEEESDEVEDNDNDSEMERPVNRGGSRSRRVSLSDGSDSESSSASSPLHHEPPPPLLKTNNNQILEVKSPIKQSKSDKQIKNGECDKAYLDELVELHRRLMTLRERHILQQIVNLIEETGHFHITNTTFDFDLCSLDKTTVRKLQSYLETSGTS
Beta cell apopt: beta cell apoptosis inhibition | hit rate 0.8% among 300,000 | protection from apoptosis, % (concentration not given with the values) | INS-1E cytokine-induced death, ATP luminescence, 48 h; percent of positive-control rescue, neutral wells zero | AID 435005;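 active means all replicates at 75% or more, or half of them and the mean; inconclusive means half reach 75% but not the mean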;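 further: 0% = cytokine-treated negative control wells and 100% = positive control rescue; higher means more ATP so stronger rescue from cytokine killing; wells of about 40 µL received 100 nL stock; the first replicate is given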
Ecoli rRNA inh: inhibits bacterial ribosomal RNA function over humanized ribosomes | E. coli WT GFP vs humanized-ribosome RFP mutants, fluorescence, 24 h; stronger effect = lower value; DMSO median 0, no signal -100 | GFP signal change (wild-type ribosome), % (test concentration not listed) | hit rate 1.6% among 350,000 | AID 720706;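 active means significant combined selectivity score with lowered wild-type GFP, culture density cut under 30%, mutant RFP and density less affected; inactive means any of these conditions unmet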; further: one replicate is shown; some compounds called inactive have numbers as strong as hits
Calb FLC: affects C. albicans growth with fluconazole; AID 1979; growth inhibition, % (test concentration not listed); hit rate 0.57% among 300,000; C. albicans CaCi-2 (fluconazole-resistant clinical isolate) + fluconazole, Alamar Blue growth, 48 h;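 active means most replicates above 75%; inconclusive means exactly half above 75%; inactive means most below 75%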;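 further: all wells also contain fluconazole at 8 µg/ml as a sub-toxic cotreatment; 0% = median of DMSO wells and 100% = median of geldanamycin control wells; wells of about 8 µL received 7.5 nL stock; the first replicate is given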
RanGTP-Impb inh: inhibitors of RanGTP-importin-beta interaction, primary screen, biochemical, FRET, CFP-Ran, YFP-importin-beta, homogeneous. cell-free CFP-Ran/YFP-importin-beta FRET ratio. inhibition, % (no concentration beside the values). hit rate 1.1% among 300,000. AID 2216;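 active means most replicates above 15%; inconclusive means exactly half above 15%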;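 further: 0% = DMSO wells and 100% = Ran loaded with GDP instead of GTP; wells of about 40 µL received 100 nL stock; the first replicate is given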
ALR inh: human ALR oxidase inhibition via reduced H2O2. P55789. inhibition, % (test concentration not listed). hit rate 3.8% among 290,000. purified ALR, DTT oxidation, H2O2 HRP-luminol luminescence. AID 485317;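 active means mean and each replicate at 75% or more; inconclusive means only one of the two met; inactive means neither met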;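 further: stock transfer was 7.5 nL into about 7.5 µL; 0% = neutral wells and 100% = wells with inactivated enzyme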
Target sequence (P55789 whole entry, looked up): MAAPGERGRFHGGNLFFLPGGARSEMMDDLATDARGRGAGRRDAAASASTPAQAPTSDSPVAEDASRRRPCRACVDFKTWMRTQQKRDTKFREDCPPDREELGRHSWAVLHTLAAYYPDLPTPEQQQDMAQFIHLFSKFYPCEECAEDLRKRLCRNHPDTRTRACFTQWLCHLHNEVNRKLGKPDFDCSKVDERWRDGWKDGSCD
FGF22 binding: binders of recombinant human FGF22 by thermal shift. Q9HCT0. SYPRO orange fluorescence; percent of sucrose octasulfate shift, DMSO zero. hit rate 1.5% among 340,000. AID 651658. calls only at 9.99 µM;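 active means melting point raised past a set limit in the mean and every replicate; inconclusive means no clear call; three in four hits are not shown here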
Target sequence (Q9HCT0 whole entry, looked up): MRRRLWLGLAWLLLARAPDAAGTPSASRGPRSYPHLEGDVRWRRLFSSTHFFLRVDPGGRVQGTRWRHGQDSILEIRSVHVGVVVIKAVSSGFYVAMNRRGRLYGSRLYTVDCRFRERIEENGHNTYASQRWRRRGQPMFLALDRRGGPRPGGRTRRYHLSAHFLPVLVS
T cruzi repl: T. cruzi replication inhibition; inhibition, % (no concentration beside the values); T. cruzi beta-gal in NIH3T3, luminescence, 90 h; hit rate 1.4% among 300,000;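 active means mean inhibition across valid replicates above about 55%, limit read from the data; inconclusive means mean below that limit but half or more replicates reach it; inactive means mean below it, under half of replicates reach it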;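 further: signal also drops with host cell toxicity which is not excluded here; 0% = plate median of DMSO wells and 100% = zero luminescence signal; higher percent means less beta-gal luminescence so fewer parasites; stock transfer was 50 nL into about 50 µL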
Ecoli rRNA inh OD600: also measured in Ecoli rRNA inh; calls as there; OD600 change, %; measured here: OD600 growth;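 optical density of the mix in the first replicate; 0 = DMSO median and -100 = no signal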
Ecoli rRNA inh RFP: also measured in Ecoli rRNA inh; calls as there; RFP signal change, %; measured here: RFP humanized mutant strains;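 first replicate; 0 = DMSO median and -100 = no signal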
An asterisk follows results filed as active; i = inactive; ? = inconclusive; . = no result given; & = joins results of further samples. These rows are one share of the data, so the mix of outcomes need not match the whole.

Results follow in this order: Ecoli rRNA inh OD600	Beta cell apopt	T cruzi repl	Ecoli rRNA inh	RanGTP-Impb inh	MLL AF4-AF9 inh	Ecoli rRNA inh RFP	ALR inh	FGF22 binding	Calb FLC
- CC(=O)c1ccc(S(=O)(=O)N2CCC(NC(=O)c3ccccc3)CC2)cc1
→ 9	-7	-4	6	?	-5.3	0.6	3	i	2
- COC(=O)c1ccccc1NCCO
→ 6	-4	-9	8	-1.0	-0.5	2.8	-4	i	-4
- COc1ccc(C2=NN3C(=O)c4c(ccc(OC)c4OC)C3C2)cc1 (stereo not drawn)
→ .	0	0	.	-3.7	.	.	10	.	2
- CCCCOc1ccc(Cl)cc1Nc1nc(NCCO)nc(N2CCCC2)n1
→ .	12	18	.	-1.0	-3.3	.	-3	i	2
- CCSc1nnc(NC(=O)c2cc(-c3ccccc3O)n[nH]2)s1
→ 8	2	-9	-5	-2.3	-1.0	-10	.	i	-2
- C/C(CC(=O)Nc1c(C)cc(C)cc1C)=N\NC(=O)OC(C)(C)C
→ .	-7	-7	.	-1.0	.	.	-25	.	4
- COc1cc2cc(CCOC(=O)c3ccco3)oc(=O)c2cc1OC
→ -4	-3	.	-3	.	0.4	-7.1	-5	.	.
- C/C(=N\NC(=O)c1nnn(-c2nonc2N)c1-c1ccccc1)c1ccccc1O
→ 10	90*	61*	0	1.6	-7.3	-1.0	.	i	30
- CSCCC(NC(=O)c1ccccc1Br)C(=O)N1CCC(C)CC1 (stereo not drawn)
→ 2	-5	-5	1	3.0	0.2	-0.6	-20	.	21
- C/C(Cn1cnc([N+](=O)[O-])n1)=N\NC(=O)c1ccc(F)cc1
→ .	-4	48	.	9.1	.	.	.	.	11
- CN1CCN(C(=O)C2=C[C@H](c3ccc(Br)cc3)C[C@H](OCCCCO)O2)CC1
→ 10	-2	3	4	0.8	-1.4&0.2	-1.3	-5	i	9
- Cc1cccc(C)c1NC(=O)CN(C)C(=O)C1CCN(c2ncnc3sc(C)c(C)c23)CC1
→ -5	.	-12	-5	-0.8	3.1	4.7	-2	i	-17
- CCCOc1cccc(-c2cc(C(=O)NN)c3ccccc3n2)c1
→ .	0	2	.	2.7	.	.	.	.	7
- COc1ccc(NC(=O)Cn2nnc(C(=O)NCc3cccs3)c2N)c(OC)c1
→ 12	.	-1	5	6.9	0.9	0.1	-5	i	-2
- O=C(O)c1cc(N/N=C/C=C/c2ccccc2[N+](=O)[O-])ccc1Cl
→ -9	2	5	-10	3.7	7.7	0.7	99*	i	12
- Cc1cnn(-c2cc(N/N=C/c3ccc(F)cc3)ncn2)c1
→ .	-6	15	.	5.3	.	.	3	.	-10
- COc1ccccc1NC(=S)NC(=O)/C=C/c1cccs1
→ -2	.	-5	-6	-3.2	1.7	13	3	i	21
- CCOCCCNC(=O)CN1C(=O)/C(=C/c2ccccc2)Sc2ccccc21
→ .	-12	1	.	0.0	.	.	-21	.	-32
- CN(c1ccccc1)S(=O)(=O)c1cccc(C(=O)OCC(=O)NCc2ccc3c(c2)OCO3)c1
→ -11	-5	-4	-19	-0.7	-17	8.6	2	i	5
- Cc1nnc(SCC(=O)NNC(=O)c2ccccc2)n1-c1ccccc1
→ 10	-2	13	5	?	-4.5	2.3	.	i	-12
- CCSc1ccc([C@@H]2[C@@H]3C(=O)N(C)C(=O)[C@@H]3[C@]3(C(=O)OC)CCCCN23)cc1
→ -26	-9	4	-15	1.0	-18	-31	-5	i	-5
- CC1CCC(C(=O)NC(C(=O)N2CCc3ccccc3C2)C(C)C)CC1 (stereo not drawn)
→ .	4	-6	.	-0.3	.	.	-20	.	-6
- CC(NC(=O)CCCc1ccccc1)c1ccncc1 (stereo not drawn)
→ 7	.	4	10	0.1	-2.0	3.9	-9	i	-8
- Cc1ccc(NC(=O)CSc2ncc(S(=O)(=O)c3ccccc3)c(=O)[nH]2)cc1C
→ .	-4	-11	.	1.2	.	.	100*	.	-4
- COC(=O)[C@@]1(Cc2ccc(OC)cc2)[C@H]2c3cc(C(=O)N(C)C)[nH]c3C[C@H]2CN1C(=O)c1ccccc1
→ 5	0	18	3	0.0	-0.9	14	-12	i	28
- CCOc1ccc(N(CC(=O)NC2CCCCCC2)S(=O)(=O)c2ccccc2)cc1
→ -2	1	8	-5	-2.1	-3.9	-4.2	.	i	40
- CCc1nc2ccccc2c(C(=O)OCC(=O)Nc2ccc(S(=O)(=O)N3CCOCC3)cc2)c1C
→ .	3	22	.	-3.4	.	.	70	.	0
- C=CCNc1oc(-c2cccc(Cl)c2)nc1C#N
→ -5	-2	.	-8	.	-2.5	-3.7	13	i	.
- COc1cccc(/C=C(/C#N)c2ccc(F)cc2)c1OCc1cccc(C(=O)O)c1
→ .	-2	14	.	-3.0	.	.	-10	.	4
- Cc1ccc(OCC(=O)N/N=C/c2cc([N+](=O)[O-])ccc2N2CCCCC2)cc1
→ 5	-7	2	2	-0.7	-1.8	0.3	-1	i	-20

At a glance, five of the compounds above.
Results follow in this order: Ecoli rRNA inh OD600	Beta cell apopt	T cruzi repl	Ecoli rRNA inh	RanGTP-Impb inh	MLL AF4-AF9 inh	Ecoli rRNA inh RFP	ALR inh	FGF22 binding	Calb FLC
- CCSc1ccc([C@@H]2[C@@H]3C(=O)N(C)C(=O)[C@@H]3[C@]3(C(=O)OC)CCCCN23)cc1
→ -26	-9	4	-15	1.0	-18	-31	-5	i	-5
- CC1CCC(C(=O)NC(C(=O)N2CCc3ccccc3C2)C(C)C)CC1 (stereo not drawn)
→ .	4	-6	.	-0.3	.	.	-20	.	-6
- CC(NC(=O)CCCc1ccccc1)c1ccncc1 (stereo not drawn)
→ 7	.	4	10	0.1	-2.0	3.9	-9	i	-8
- Cc1ccc(NC(=O)CSc2ncc(S(=O)(=O)c3ccccc3)c(=O)[nH]2)cc1C
→ .	-4	-11	.	1.2	.	.	100*	.	-4
- COC(=O)[C@@]1(Cc2ccc(OC)cc2)[C@H]2c3cc(C(=O)N(C)C)[nH]c3C[C@H]2CN1C(=O)c1ccccc1
→ 5	0	18	3	0.0	-0.9	14	-12	i	28

New compounds follow.
Results follow in this order: Ecoli rRNA inh OD600	Beta cell apopt	T cruzi repl	Ecoli rRNA inh	RanGTP-Impb inh	MLL AF4-AF9 inh	Ecoli rRNA inh RFP	ALR inh	FGF22 binding	Calb FLC
- COc1cccc(NC(=O)Nc2cc(C(=O)O)ccc2C)c1
→ 6	-7	-4	14	0.6	0.3	0.3	-6	i	-12
- CCC(C)(C)NC(=O)C(C)OC(=O)c1nsc(Cl)c1Cl (stereo not drawn)
→ .	-10	6	.	-1.7	.	.	1	.	32
- Cc1nc(CS(=O)(=O)c2ccccn2)sc1C(=O)NNC(=O)c1ccccc1
→ 6	-8	-8	23	-4.2	-9.5	-0.1	1	i	-7
- CN(C)c1ccc(C(CNC(=O)c2ccccc2)c2c[nH]c3ccccc23)cc1 (stereo not drawn)
→ -23	9	27	-23	1.5	29*	-3.4	31	i	5
- COc1ccc(-c2nnc(SCC(=O)NC(C)c3ccccc3)o2)cc1 (stereo not drawn)
→ -4	1	-1	-4	-1.7	1.9	-0.8	-8	i	-9
- CC1(C)CC(=O)C(Sc2ccc(Br)cc2)=C(O)C1
→ -2	-5	-3	-1	8.4	-2.4	-4.2	0	i	-27
- CCc1ccc(NC(=O)CSc2nnc(CNC(=O)c3cccs3)o2)cc1
→ -1	1	-12	2	-1.2	-5.8	-0.9	-77	i	0
- O=[N+]([O-])c1cccc(-c2noc(-c3cccs3)n2)c1
→ .	6	8	.	-0.9	-1.3	.	3	i	-3
- CCOc1ccccc1NC(=O)CSc1nnc(-c2ccccn2)n1Cc1ccco1
→ .	-3	12	.	1.9	.	.	19	.	-11
- CS(=O)(=O)N(Cc1ccccc1)c1ccc(C(=O)NC2CCCCC2O)cc1 (stereo not drawn)
→ .	-4	-13	.	-0.2	.	.	-22	.	-6
- Cc1ccccc1-n1c(C)nnc1SCC(=O)N1CC(=O)Nc2ccccc21
→ 0	-5	1	4	-1.8	-40	2.3	-75	i	25
- COc1ccc(-c2cc(C(=O)NC3CC3)c3ccccc3n2)cc1
→ 11	2	6	10	-2.6	-1.7	1.5	0	i	2
- COc1cccc(N(CC(=O)NCc2ccccc2)C(=O)CCC(=O)Nc2nccs2)c1
→ 13	-1	8	5	3.1	0.1	-0.3	.	i	-1
- CCOC(=O)c1c(C)[nH]c(C)c1C(=O)COC(=O)c1cccnc1OCC
→ -8	-4	.	-2	.	2.9	-7.6	.	i	.
- O=C(/C=C/c1ccc(Cl)cc1Cl)N1CCN(c2ccccc2[N+](=O)[O-])CC1
→ -23	-3	14	-7	0.1	-5.7	25	-2	i	22
- Cc1cccc(NC(=S)NC2CC3CCC(C2)N3Cc2ccco2)c1 (stereo not drawn)
→ 2	-12	-24	12	1.1	2.9	-10	2	i	-17
- COc1ccc(-n2c(SCC(=O)NCC3CCCO3)nc3c([nH]c4ccccc43)c2=O)cc1OC (stereo not drawn)
→ -8	0	7	0	0.2	-0.9	-0.6	-5	i	-1
- COc1ccccc1N1CCN(Cc2nc(N)nc(Nc3ccc(C)c(Cl)c3)n2)CC1
→ .	1	11	.	1.2	.	.	8	.	60
- CCCc1cc(=O)[nH]c(SCC(=O)Nc2sc(C(N)=O)c(C)c2C(=O)OCCOC)n1
→ 2	1	.	-2	.	-0.2	2.0	-1	i	.
- COc1cc(CNC(=O)c2cnc(C)cn2)cc(OC)c1
→ -8	.	-5	-3	8.8	-4.4	-0.1	-6	i	-5
- Cc1cc(C)n2nc(SCC(=O)Nc3c(C)n(C)n(-c4ccccc4)c3=O)nc2n1
→ .	-3	-8	.	2.4	.	.	-10	.	12
- O=C(NCc1ccccc1)c1nccnc1CO
→ 14	3	-4	0	-1.3	-0.6	0.6	.	i	-2
- CCOC(=O)Cc1csc(NC(=O)COc2ccc3c(C)cc(=O)oc3c2)n1
→ -1	3	-9	-4	3.1	-1.7	6.6	-3	i	15
- Cc1nnc(NC(=O)c2ccc3c(c2)OCO3)s1
→ 10	.	-6	15	2.9	-0.6	0.8	0	i	3
- CC1(C)Cc2ccccc2C2=C(C(=O)N3CCCCCC3)C(=O)C(=O)N21
→ -3	-9	-8	5	.	-0.4	-1.7	-5	.	-10
- COc1ccc(/C=C2/SC(=S)N(c3ccc(S(=O)(=O)Nc4nccs4)cc3)C2=O)cc1
→ 14	-1	-32	12	-5.6	-0.3	51	-20	i	4
- O=C(O)C1CCN(C(=O)c2scc3c2OCCO3)CC1
→ .	4	-7	.	-3.0	.	.	-2	.	-9
- O=C(CCn1c(=O)c2sccc2n(CC(=O)OCc2ccccc2)c1=O)NCc1ccco1
→ .	-2	-2	.	-1.9	.	.	-8	.	1
- CCN(CC)S(=O)(=O)c1cccc(C(=O)Nc2cc(C)on2)c1
→ 5	-9	2	0	4.4	1.7	1.2	-4	i	3
- Cc1ccc(C(=O)NCCc2ccc(F)cc2)s1
→ 9	.	3	3	-3.3	-2.4	0.4	15	.	-44
- O=C1S/C(=C\C=C\c2ccco2)C(=O)N1c1ccccc1
→ .	-5	0	.	-2.5	.	.	.	.	0
- c1nc(N2CCC3(CC2)OCCO3)c2c3c(sc2n1)CCCC3
→ .	.	2	.	-1.2	.	.	1	.	41
